Vif TR-FRET: inhibitors of Vif binding to APOBEC3G peptide, primary screen, biochemical, TR-FRET, GST-Vif 1-94, biotin-A3G peptide, dose response retest (AID 1117319); TR-FRET GST-Vif / biotin-A3G peptide binding; higher % means a stronger effect; test concentration not given here; strong numbers were not always called active; hit rate 0.57% among 260,000; inhibition, %; hits with a dose series show IC50 in µM;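 active = above the screen mean plus three standard deviations and confirmed in dose response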;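 also: Vif residues 1-94 fused to GST binding biotinylated APOBEC3G peptide 110-148; 0% = full assay without inhibitor and 100% = GST in place of GST-Vif; retest series ran down from 100 µM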
HNF4A DNA FP: change in binding of human HNF4 alpha to DNA; hit rate 0.3% among 360,000; activity change, % at 10 µM; HNF4a-FITC DNA binding, fluorescence polarization, 1 h; P41235; in the data active = activity change above about 30%, passing the limit was not always enough;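 also: controls were the assay level and a saturating level of protein; the project sought stronger binding though the title names inhibitors; some compounds called inactive have numbers as strong as hits; positive values seem to mean higher polarization but the record does not say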
Target sequence (P41235 whole entry, looked up): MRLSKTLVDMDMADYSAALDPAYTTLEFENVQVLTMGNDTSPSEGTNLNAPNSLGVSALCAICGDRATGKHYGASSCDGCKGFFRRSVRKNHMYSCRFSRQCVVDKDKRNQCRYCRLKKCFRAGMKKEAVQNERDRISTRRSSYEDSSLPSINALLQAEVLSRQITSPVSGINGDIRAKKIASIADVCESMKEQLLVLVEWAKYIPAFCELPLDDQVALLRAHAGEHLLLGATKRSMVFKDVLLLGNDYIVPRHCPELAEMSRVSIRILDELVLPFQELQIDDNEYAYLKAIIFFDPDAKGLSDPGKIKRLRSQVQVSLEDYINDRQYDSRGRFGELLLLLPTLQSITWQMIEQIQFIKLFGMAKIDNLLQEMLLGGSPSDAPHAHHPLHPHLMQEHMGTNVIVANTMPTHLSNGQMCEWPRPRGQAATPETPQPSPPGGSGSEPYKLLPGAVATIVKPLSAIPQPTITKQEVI
* = called active by the depositor.

What do the screens show for `O=C1NC(Cc2ccc(O)cc2)c2nc3cc(F)ccc3c(=O)n2-c2cc3ccccc3cc21` (stereo not given)?
Vif TR-FRET: -1%; HNF4A DNA FP: -3.0

Results for COCCNc1nc2c(c(=O)n(C)c(=O)n2C)n1CCCc1ccccc1 ?
Vif TR-FRET: 2%; HNF4A DNA FP: -0.8

Results for CC1CCCC(C)N1C(=O)CN1C(=O)NC2(CCCCCC2)C1=O (stereo not given) ?
Vif TR-FRET: -1%; HNF4A DNA FP: -0.9

How did COc1cc2c(cc1OC)C1CCc3cc4c(cc3C1N=C2)OCO4 (stereo not given) do in these assays?
Vif TR-FRET: 8%; HNF4A DNA FP: 2.9

What do the screens show for `COCCCN1C(=O)C(CC(=O)NCCCCc2ccccc2)CC(C(=O)N2CCOCC2)=C1C` (stereo not given)?
Vif TR-FRET: -2%; HNF4A DNA FP: 0.3

How did COc1ccccc1C(=O)N1CCN(C(=O)c2oc3c(C)c(C)ccc3c2C)CC1 do in these assays?
Vif TR-FRET: -9%; HNF4A DNA FP: 0.5

What do the screens show for `Cc1c(C(=O)N2CCN(Cc3nccn3C)CC2)oc2c(F)cccc12`?
Vif TR-FRET: 4%; HNF4A DNA FP: -3.1

How did Cc1ccc(NC(=O)CN2C(=O)NC3(CCCCC3C)C2=O)cc1S(=O)(=O)N1CCOCC1 (stereo not given) do in these assays?
Vif TR-FRET: 3%; HNF4A DNA FP: -1.4

Results for O=C(CCCN1C(=O)/C(=C\c2cccs2)SC1=S)Nc1ccccc1O ?
Vif TR-FRET: 4%; HNF4A DNA FP: 7.8

Results for Cc1ccc2c(=O)n3c(nc2c1)C(Cc1ccccc1)NC(=O)c1cc2ccccc2cc1-3 (stereo not given) ?
Vif TR-FRET: -5%; HNF4A DNA FP: 0.2

Results for C=CCn1c(SCC(=O)NC2CCCC2)nc2ccccc21 ?
Vif TR-FRET: 2%; HNF4A DNA FP: -3.2

Results for Cn1cnnc1SCC(=O)N1CCc2ccccc2C1 ?
Vif TR-FRET: -4%; HNF4A DNA FP: 5.8

What do the screens show for `O=C(COC(=O)Cc1c(Cl)cccc1Cl)NCc1ccccc1`?
Vif TR-FRET: 2%; HNF4A DNA FP: -3.1

Results for CN1OC[C@@H]2CN[C@H](c3ccc(-c4cc5ccccc5o4)cc3)C[C@@H]21 ?
Vif TR-FRET: 5%; HNF4A DNA FP: 0.4

How did O=C(c1ccco1)N1CCC2CC1c1c(Cl)cccc12 (stereo not given) do in these assays?
Vif TR-FRET: -6%; HNF4A DNA FP: 0.1

How did C[C@H](CO)N1C[C@H](C)[C@@H](CN(C)C(=O)Nc2ccc(C(C)(C)C)cc2)OCc2cnnn2CCCC1=O do in these assays?
Vif TR-FRET: -1%; HNF4A DNA FP: -1.4

What do the screens show for `COc1cccc(CN2CC(C(=O)NCCc3nccs3)CCC2=O)c1` (stereo not given)?
Vif TR-FRET: 1%; HNF4A DNA FP: 1.9

What do the screens show for `CN(CCCn1ccc(NC(=O)OCc2ccccc2)nc1=O)Cc1ccco1`?
Vif TR-FRET: 0%; HNF4A DNA FP: -4.1

What do the screens show for `c1ccc(Cc2c(-c3ccccc3)nc3c4ccccc4ccn23)cc1`?
Vif TR-FRET: -1%; HNF4A DNA FP: 0.5

Results for CC1(c2ccccc2)NC(=O)N(CC(=O)N2CCc3ccccc32)C1=O (stereo not given) ?
Vif TR-FRET: 5%; HNF4A DNA FP: 0.8

How did O=C(c1ccc(Cl)cc1)N1CCN(c2ccc(N3CCOCC3)nn2)CC1 do in these assays?
Vif TR-FRET: 2%; HNF4A DNA FP: -1.8

How did C[C@@H]1CN([C@H](C)CO)C(=O)CCCn2cc(nn2)CO[C@H]1CN(C)S(=O)(=O)c1cccc(C#N)c1 do in these assays?
Vif TR-FRET: -2%; HNF4A DNA FP: -1.0

What do the screens show for `CCOC(=O)C1(COCc2ccccc2)CCCCC1=O` (stereo not given)?
Vif TR-FRET: 0%; HNF4A DNA FP: -3.6

What do the screens show for `CCOc1ccc(C2C3=C(CC(C)(C)CC3=O)N(CCCOC)C3=C2C(=O)CC(C)(C)C3)cc1OC`?
Vif TR-FRET: -1%; HNF4A DNA FP: -1.5

What do the screens show for `O=C(c1ccc(CS(=O)c2ccccc2Cl)o1)N1CCN(C2CCCCC2)CC1` (stereo not given)?
Vif TR-FRET: 4%; HNF4A DNA FP: -4.0

How did CC1(C)CC(=Cc2ccccc2[N+](=O)[O-])C(=O)c2ccccc21 do in these assays?
Vif TR-FRET: 2%; HNF4A DNA FP: -1.3

What do the screens show for `CN1CC(O)(C(O)C(O)C(O)CO)SC1=S` (stereo not given)?
Vif TR-FRET: -4%; HNF4A DNA FP: 6.6

Results for COc1ccc(CNC(=O)C2CCCN2C(=O)Nc2cccc(Cl)c2)cc1 (stereo not given) ?
Vif TR-FRET: -3%; HNF4A DNA FP: -2.1

What do the screens show for `CC(Sc1ccc(S(=O)(=O)N2CCCCC2)cn1)C(N)=O` (stereo not given)?
Vif TR-FRET: 0%; HNF4A DNA FP: 1.7

Results for COc1cc2c(cc1CNC[C@H]1O[C@@H](n3ccc(N)nc3=O)[C@H](O)[C@@H]1O)OCO2 ?
Vif TR-FRET: -3%; HNF4A DNA FP: -5.6

Results for C[C@H]1CN(c2ccccc2)C(=O)[C@@H]1CC(=O)Nc1ccccc1 ?
Vif TR-FRET: -5%; HNF4A DNA FP: 0.1

Results for CCC(O)c1cnc(OCc2ccccc2)nc1OCc1ccccc1 (stereo not given) ?
Vif TR-FRET: -4%; HNF4A DNA FP: -2.9

What do the screens show for `CC(C)OC(=O)N(C)C[C@H]1OCc2cnnn2CCCC(=O)N([C@@H](C)CO)C[C@H]1C`?
Vif TR-FRET: 1%; HNF4A DNA FP: -1.1

Results for COc1ccc(-n2nc3ccc(N)cc3n2)cc1 ?
Vif TR-FRET: -6%; HNF4A DNA FP: 6.2

How did C[C@H]1Cn2cnc(C(=O)Nc3ccc(CNC(=O)OC(C)(C)C)cc3)c2C(=O)N1 do in these assays?
Vif TR-FRET: 3%; HNF4A DNA FP: -5.8

Results for CC1C(=O)N(Cc2cn(CCC3OCCCO3)nn2)CCS(=O)(=O)N1Cc1ccc(-c2ccc(F)nc2)cc1 (stereo not given) ?
Vif TR-FRET: 0%; HNF4A DNA FP: 0.2

Results for COc1cccc(S(=O)(=O)N(C)C[C@@H]2OCc3cn(nn3)CCCC(=O)N([C@H](C)CO)C[C@H]2C)c1 ?
Vif TR-FRET: 6%; HNF4A DNA FP: -6.2

Results for CC(=O)c1ccc(Nc2ncnc3ccc(Br)cc23)cc1 ?
Vif TR-FRET: -5%; HNF4A DNA FP: 17

How did COc1ccc(NC(=O)N(C)C[C@@H]2Oc3cc(C#CCN(C)C)ccc3S(=O)(=O)N([C@H](C)CO)C[C@H]2C)cc1 do in these assays?
Vif TR-FRET: 1%; HNF4A DNA FP: -0.3

Results for Cc1ccc(C(c2c(NC(=O)c3ccco3)sc(C)c2C)N2CCOCC2)cc1 (stereo not given) ?
Vif TR-FRET: 4%; HNF4A DNA FP: 1.7

Results for O=C1NC(=O)C2C3OC(C(Br)C3Br)C12 (stereo not given) ?
Vif TR-FRET: 7%; HNF4A DNA FP: 0.6

How did COc1ccc(S(=O)(=O)N2CCN(C(=O)c3cccc(S(=O)(=O)N4CCCC4)c3)CC2)cc1 do in these assays?
Vif TR-FRET: 7%; HNF4A DNA FP: 3.3

Results for CC1(C)CC2(OC2c2ccccc2[N+](=O)[O-])C(=O)c2ccccc21 (stereo not given) ?
Vif TR-FRET: -9%; HNF4A DNA FP: 3.7

How did C1CCN(CCC2CCCCN2)CC1 (stereo not given) do in these assays?
Vif TR-FRET: 12%; HNF4A DNA FP: -1.6

What do the screens show for `CC1C(c2ccccc2)OCCN1C=NC#N` (stereo not given)?
Vif TR-FRET: -4%; HNF4A DNA FP: -4.2

Results for CCOC(=O)N1CCN(S(=O)(=O)N2CCCC(C(=O)NCc3ccc(C)cc3)C2)CC1 (stereo not given) ?
Vif TR-FRET: -2%; HNF4A DNA FP: -0.1

What do the screens show for `O=C(N/C(=C/c1cccc(Br)c1)C(=O)N1CCCCC1)c1ccco1`?
Vif TR-FRET: 4%; HNF4A DNA FP: 2.1

What do the screens show for `O[C@@H]1C[C@H](c2ccccc2)N(Cc2cccs2)C[C@H]1n1cc(C2CC2)nn1`?
Vif TR-FRET: -5%; HNF4A DNA FP: 2.1

What do the screens show for `C[C@H]1CN([C@@H](C)CO)C(=O)CCCn2nncc2CO[C@@H]1CN(C)Cc1cccc(C(F)(F)F)c1`?
Vif TR-FRET: 1%; HNF4A DNA FP: 1.6

Results for CC(=O)Nc1ccc(N2CCOCC2)c(S(=O)(=O)Nc2ccccc2Cl)c1 ?
Vif TR-FRET: 1%; HNF4A DNA FP: -0.7

How did CCC/C=C/c1ccc(CN2C(C(C)C)C(=O)N(Cc3cn(CCC4OCCCO4)nn3)CCS2(=O)=O)cc1 (stereo not given) do in these assays?
Vif TR-FRET: -5%; HNF4A DNA FP: 1.8

What do the screens show for `CC(=O)Oc1[nH]c(=O)c2cccc3c2c1CCC3`?
Vif TR-FRET: -15%; HNF4A DNA FP: -5.1

What do the screens show for `C[C@@H]1CN([C@H](C)CO)S(=O)(=O)c2ccc(Br)cc2O[C@H]1CN(C)C(=O)C1CC1`?
Vif TR-FRET: 0%; HNF4A DNA FP: -1.8

Results for CCCCN1C[C@H](c2ccc(OC)cc2)[C@@H](CC(=O)Nc2ccc(OC)cc2)C1=O ?
Vif TR-FRET: -1%; HNF4A DNA FP: 3.4

What do the screens show for `COc1ccc(-c2csc(NC(=O)c3c(C)noc3C)n2)cc1OC`?
Vif TR-FRET: 0%; HNF4A DNA FP: 22

Results for Cc1ccc(S(=O)(=O)Nc2ccccn2)c(C)c1 ?
Vif TR-FRET: -5%; HNF4A DNA FP: -2.5

What do the screens show for `C[C@H](CO)N1C[C@H](C)[C@@H](CN(C)C(=O)CCCN(C)C)OCc2cn(nn2)CCCC1=O`?
Vif TR-FRET: 1%; HNF4A DNA FP: -9.1

What do the screens show for `O=C1OC(O)c2cccc3cccc1c23` (stereo not given)?
Vif TR-FRET: 2%; HNF4A DNA FP: -4.9

How did CN(C)c1ccc(Cl)c(NC(N)=S)c1 do in these assays?
Vif TR-FRET: -3%; HNF4A DNA FP: -12

What do the screens show for `Cc1ccc([C@@H]2CC(=O)[C@@H]3CN(S(=O)(=O)c4ccc(C)cc4)[C@H](c4ccc(Cl)cc4)C[C@@H]3N2S(=O)(=O)c2ccc(C)cc2)cc1`?
Vif TR-FRET: -6%; HNF4A DNA FP: 2.7

An excerpt from further up:
Results for CC(=O)Nc1ccc(N2CCOCC2)c(S(=O)(=O)Nc2ccccc2Cl)c1 ?
Vif TR-FRET: 1%; HNF4A DNA FP: -0.7

How did CCC/C=C/c1ccc(CN2C(C(C)C)C(=O)N(Cc3cn(CCC4OCCCO4)nn3)CCS2(=O)=O)cc1 (stereo not given) do in these assays?
Vif TR-FRET: -5%; HNF4A DNA FP: 1.8

What do the screens show for `CC(=O)Oc1[nH]c(=O)c2cccc3c2c1CCC3`?
Vif TR-FRET: -15%; HNF4A DNA FP: -5.1

What do the screens show for `C[C@@H]1CN([C@H](C)CO)S(=O)(=O)c2ccc(Br)cc2O[C@H]1CN(C)C(=O)C1CC1`?
Vif TR-FRET: 0%; HNF4A DNA FP: -1.8

Results for CCCCN1C[C@H](c2ccc(OC)cc2)[C@@H](CC(=O)Nc2ccc(OC)cc2)C1=O ?
Vif TR-FRET: -1%; HNF4A DNA FP: 3.4

The listing picks up with the 4 entries that preceded the break.
What do the screens show for `C[C@H](CO)N1C[C@H](C)[C@@H](CN(C)C(=O)CCCN(C)C)OCc2cn(nn2)CCCC1=O`?
Vif TR-FRET: 1%; HNF4A DNA FP: -9.1

What do the screens show for `O=C1OC(O)c2cccc3cccc1c23` (stereo not given)?
Vif TR-FRET: 2%; HNF4A DNA FP: -4.9

How did CN(C)c1ccc(Cl)c(NC(N)=S)c1 do in these assays?
Vif TR-FRET: -3%; HNF4A DNA FP: -12

What do the screens show for `Cc1ccc([C@@H]2CC(=O)[C@@H]3CN(S(=O)(=O)c4ccc(C)cc4)[C@H](c4ccc(Cl)cc4)C[C@@H]3N2S(=O)(=O)c2ccc(C)cc2)cc1`?
Vif TR-FRET: -6%; HNF4A DNA FP: 2.7

Results for CC1CCN(C(=O)c2ncn3c2c(=O)[nH]c2ccccc23)CC1 ?
Vif TR-FRET: 7%; HNF4A DNA FP: -0.1

What do the screens show for `CC12CCC(=O)N1C(C(=O)Oc1cccc(F)c1)CS2` (stereo not given)?
Vif TR-FRET: 3%; HNF4A DNA FP: -0.3

How did CCN(CC)C(=O)C1=C(C)N(Cc2ccc(OC)cc2)C(=O)C(CC(=O)NC2CCCCC2)C1 (stereo not given) do in these assays?
Vif TR-FRET: -1%; HNF4A DNA FP: 0.0

What do the screens show for `COc1ccc(C2CCCCC2SCC(=O)O)cc1OC` (stereo not given)?
Vif TR-FRET: 5%; HNF4A DNA FP: 2.0

How did COCCCN1C(=O)C(CC(=O)NCc2cccs2)CC(C(=O)N2CCOCC2)=C1C (stereo not given) do in these assays?
Vif TR-FRET: 0%; HNF4A DNA FP: -1.1

How did COc1ccc(N(CC(=O)N2CCN(c3ccccc3)CC2)S(=O)(=O)c2ccccc2)cc1 do in these assays?
Vif TR-FRET: 2%; HNF4A DNA FP: 3.0

How did CC1(C)CC(=O)C(CSC(=O)c2ccccc2)C(=O)C1 do in these assays?
Vif TR-FRET: -2%; HNF4A DNA FP: -0.9

Screening data deposited in PubChem BioAssay by several laboratories.

An excerpt (hit frequency here may not be typical).
